Source: PubChem (several laboratories)
AF4-AF9 inh – inhibitors of AF4 peptide binding to AF9, primary screen, biochemical, AlphaScreen, biotin-AF4 peptide, FLAG-AF9, single point; AID 651704, 2012; 0.47% of 350,000 active; Protein AF-9 (Homo sapiens), P42568; inhibition, % at 10 µM;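 active = every replicate reaching a set inhibition limit, whatever the replicate mean, cut at about 25% in these data; inconclusive = mean inhibition reaches that limit but some replicates miss it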;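 also: 0% = plate neutral control median and 100% = total signal loss; the record names both 10 and 1 µM as test concentration; the first replicate is given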
Target sequence (P42568 whole entry, looked up): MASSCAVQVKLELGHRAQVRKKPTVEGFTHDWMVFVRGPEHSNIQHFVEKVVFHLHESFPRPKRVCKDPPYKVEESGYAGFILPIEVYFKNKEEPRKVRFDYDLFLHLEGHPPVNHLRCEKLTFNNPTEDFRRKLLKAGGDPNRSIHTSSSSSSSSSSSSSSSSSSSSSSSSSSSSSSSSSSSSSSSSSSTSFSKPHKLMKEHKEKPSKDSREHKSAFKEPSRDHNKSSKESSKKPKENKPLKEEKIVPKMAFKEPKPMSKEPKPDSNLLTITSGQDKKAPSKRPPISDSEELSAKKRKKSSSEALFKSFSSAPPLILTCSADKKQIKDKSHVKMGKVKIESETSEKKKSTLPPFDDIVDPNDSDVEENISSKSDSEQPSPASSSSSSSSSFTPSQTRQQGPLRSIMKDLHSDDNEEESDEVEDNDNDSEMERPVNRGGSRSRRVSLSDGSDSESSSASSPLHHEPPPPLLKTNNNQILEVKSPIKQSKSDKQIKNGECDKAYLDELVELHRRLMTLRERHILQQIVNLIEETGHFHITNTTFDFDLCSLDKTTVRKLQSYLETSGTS
E coli growth – E. coli growth inhibition, primary screen, OD600. Escherichia coli growth, 23 h; stronger effect = lower value. 0.21% of 330,000 active. OD600 absorbance (no concentration beside the values). AID 1053175, 2014;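 active = OD600 absorbance below the run mean of sample wells minus 3.6 SD, in any replicate, cut at about 0.56 in these data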;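 also: stock transfer was 300 nL into about 60 µL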
Vif A3G – inhibitors of Vif binding to APOBEC3G peptide, primary screen, biochemical, TR-FRET, GST-Vif 1-94, biotin-A3G peptide, dose response retest (AID 1117319); TR-FRET GST-Vif / biotin-A3G peptide binding; higher % means a stronger effect; test concentration not given here; strong numbers were not always called active; inhibition, %; hits with a dose series show IC50 in µM; 0.57% of 260,000 active;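 active = above the screen mean plus three standard deviations and confirmed in dose response; inconclusive = results disagree or hit not tested in dose response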;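 also: Vif residues 1-94 fused to GST binding biotinylated APOBEC3G peptide 110-148; 0% = full assay without inhibitor and 100% = GST in place of GST-Vif; retest series ran down from 100 µM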
rRNA inh HTS – reduced GFP signal of wild-type E. coli, primary screen, bacterial rRNA inhibitor project, GFP/RFP fluorescence, OD600, single point. GFP signal change (wild-type ribosome), % (concentration not given with the values). E. coli WT GFP vs humanized-ribosome RFP mutants, 24 h; stronger effect = lower value; DMSO median 0, no signal -100. 1.6% of 350,000 active. AID 720706, 2013;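 active = significant combined selectivity score with lowered wild-type GFP, culture density cut under 30%, mutant RFP and density less affected; inactive = any of these conditions unmet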; also: one replicate is shown; some compounds called inactive have numbers as strong as hits
HNF4A DNA FP – change in binding of human HNF4A to DNA, primary screen, biochemical, fluorescence polarization, FITC-DNA; AID 1224865, 2016; 1 h; Hepatocyte nuclear factor 4-alpha (Homo sapiens), P41235; activity change, % at 10 µM; 0.3% of 360,000 active; in the data active = activity change above about 30%, passing the limit was not always enough;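 also: controls were the assay level and a saturating level of protein; the project sought stronger binding though the title names inhibitors; some compounds called inactive have numbers as strong as hits; positive values seem to mean higher polarization but the record does not say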
Target sequence (P41235 whole entry, looked up): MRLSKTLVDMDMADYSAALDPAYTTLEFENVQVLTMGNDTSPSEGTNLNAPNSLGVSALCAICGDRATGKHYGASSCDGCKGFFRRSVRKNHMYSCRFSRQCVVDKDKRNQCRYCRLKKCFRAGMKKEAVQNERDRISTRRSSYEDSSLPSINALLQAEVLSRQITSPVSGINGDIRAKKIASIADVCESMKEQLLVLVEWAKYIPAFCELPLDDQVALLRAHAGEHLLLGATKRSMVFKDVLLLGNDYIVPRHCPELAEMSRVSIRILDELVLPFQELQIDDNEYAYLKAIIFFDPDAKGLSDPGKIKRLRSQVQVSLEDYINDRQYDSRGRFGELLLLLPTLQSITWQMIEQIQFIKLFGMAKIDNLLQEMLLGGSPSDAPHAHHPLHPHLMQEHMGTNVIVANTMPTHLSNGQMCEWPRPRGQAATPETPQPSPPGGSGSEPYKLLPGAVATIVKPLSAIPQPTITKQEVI
FGF22 binding – binders of human FGF22 protein, primary screen, FGF22 synaptogenesis inhibitor project, biophysical, thermal shift, single point. Fibroblast growth factor 22 (Homo sapiens), Q9HCT0. recombinant FGF22 thermal shift, SYPRO orange fluorescence; percent of sucrose octasulfate shift, DMSO zero. calls only at 9.99 µM. 1.5% of 340,000 active;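 active = melting point raised past a set limit in the mean and every replicate; inconclusive = no clear call; three in four hits are not shown here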
ALR inh – inhibitors of human ALR sulfhydryl oxidase, primary screen, biochemical, H2O2 detection, HRP-luminol luminescence, single point. FAD-linked sulfhydryl oxidase ALR (Homo sapiens), P55789. purified ALR, DTT oxidation. inhibition, % (test concentration not listed). 3.8% of 290,000 active. AID 485317, 2010;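 active = mean and each replicate at 75% or more; inconclusive = only one of the two met; inactive = neither met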;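 also: stock transfer was 7.5 nL into about 7.5 µL; 0% = neutral wells and 100% = wells with inactivated enzyme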
rRNA inh HTS OD600 – also measured in rRNA inh HTS; calls as there; OD600 change, %; measured here: OD600 growth;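 optical density of the mix in the first replicate; 0 = DMSO median and -100 = no signal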
rRNA inh HTS RFP – recorded beside rRNA inh HTS, whose call it bears; RFP signal change, %; measured here: RFP humanized mutant strains;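 first replicate; 0 = DMSO median and -100 = no signal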
Starred values were filed as active, the others as inactive; i = inactive; ? = inconclusive; . = not tested or not shown; & = joins results of further samples. Some of the compounds tested; rates above refer to the full screens.

SMILES | AF4-AF9 inh | E coli growth | Vif A3G | rRNA inh HTS | rRNA inh HTS OD600 | rRNA inh HTS RFP | HNF4A DNA FP | FGF22 binding | ALR inh
CC(C)(C)c1cc[n+](-c2[nH]c(=O)sc2/C=N/N=C(\[O-])c2ccccc2)cc1 | 1.2 | . | 6.0% | 7.8 | 2.4 | -1.2 | -0.6 | i | 1.6
C[C@@H]1CN([C@H](C)CO)C(=O)Cc2cc(NC(=O)c3ccncc3)ccc2O[C@@H]1CN(C)Cc1ccc2c(c1)OCO2 | 0.8 | . | . | -0.4 | 5.9 | 0.0 | . | i | .
Cc1ccc(C2/C(=C(/O)c3ccc4c(c3)CC(C)O4)C(=O)C(=O)N2CCCn2ccnc2)cc1 (stereo not drawn) | -2.6 | 0.676 | . | 1.1 | 2.6 | 2.5 | 1.8 | i | 2.4
Oc1cccc(/C=N/N(Cc2ccccc2)c2ccccc2)c1 | 8.4 | . | 1.9% | -42.4* | 3.8* | -8.0* | 7.2 | i | ?
Cc1ccc(S(=O)(=O)Nc2cccc3c2O[C@H](CN(C)C(=O)Nc2c(C)noc2C)[C@H](C)CN([C@H](C)CO)C3=O)cc1 | -8.8 | . | . | 2.4 | 5.1 | -2.4 | . | i | .
CCOC(=O)C1CCN(C(=O)COc2ccc(N(C)S(=O)(=O)c3ccc(C)cc3)cc2)CC1 | -0.3 | 0.713 | 1.2% | -20.0 | -20.5 | -3.1 | -0.3 | i | -1.5
Cc1ccc(N2CCN(C(=S)Nc3ccccc3C)CC2)cc1 | -0.6 | 0.716 | -2.7% | 5.5 | 3.7 | -3.5 | -4.7 | i | -8.3
CCOC(=O)c1nnc(-c2ccccc2)nc1Sc1ccccc1Cl | . | 0.795 | -2.5% | . | . | . | 0.3 | . | 97.3*
CCN(CC)C(CNC(=O)CSc1nnnn1-c1ccc(C)c(C)c1)c1ccco1 (stereo not drawn) | 7.2 | 0.673 | 8.2% | . | . | . | 5.6 | i | 27.5
CCC(=O)c1ccc(OCC(=O)N2CCN(c3ncccn3)CC2)cc1 | -10.7 | 0.674 | -0.7% | 4.5 | 9.9 | 0.5 | 3.1 | i | .
COCC(C)n1c(C)cc(C(=O)CSc2ncccn2)c1C (stereo not drawn) | -2.8 | 0.727 | 1.3% | 8.0 | -10.1 | 1.0 | 0.1 | i | -4.0
COc1cc(/C=C2\SC(=S)N(CCC(=O)Nc3ccccn3)C2=O)cc(OC)c1OC | 4.5 | 0.652 | 23.4% | 5.8 | 0.9 | 2.0 | -1.0 | i | .
C[C@@H]1CN([C@@H](C)CO)C(=O)Cc2cc(NC(=O)Cn3cnnn3)ccc2O[C@H]1CN(C)Cc1ccncc1 | -1.3 | . | . | 6.1 | 12.4 | -1.5 | . | i | .
CCN(CC)c1ccc(C=Nc2ccc(C#N)cc2)c(O)c1 | . | 0.675 | -0.8% | . | . | . | 4.5 | . | -9.5
C[C@@H]1CN([C@H](C)CO)C(=O)c2cc(-c3ccc(F)cc3)cnc2O[C@H]1CN(C)C(=O)c1ccccc1F | -8.1 | . | . | 7.9 | 3.8 | -0.6 | . | i | .
CN1CCc2c(sc3c2C(=O)NC(c2cn(Cc4ccccc4)c4ccccc24)N3)C1 (stereo not drawn) | . | 0.645 | -3.0%&-4.4% | . | . | . | 52.4* | . | -13.2
COc1cccc(NC(=O)N(C)C[C@H]2OCc3cnnn3CCCC(=O)N([C@H](C)CO)C[C@H]2C)c1 | 0.5 | . | . | -4.3 | -11.3 | -0.4 | . | i | .
Cc1noc(C)c1S(=O)(=O)Nc1ccc2c(c1)CC(=O)N([C@@H](C)CO)C[C@@H](C)[C@@H](CN(C)C(=O)Nc1ccc(F)cc1)O2 | -1.6 | . | . | 6.9 | 10.6 | 0.5 | . | i | .
O=C(Nc1ccc(Nc2ccccc2)cc1)Nc1ccccc1Cl | 2.0 | 0.688 | -1.2%&32.8% | -11.1 | -27.2 | -17.5 | 0.4 | i | 68.8
COc1ccccc1-c1ccc([C@H]2[C@H](CO)N(C(C)=O)C23CN(C(C)=O)C3)cc1 | 4.5 | . | . | 2.4 | 10.6 | 1.0 | . | i | .
CCCCNC(=S)NNC(=O)c1cc(-c2cccnc2)nc2ccccc12 | -1.9 | 0.692 | . | -8.4 | -13.4 | -1.1 | 4.5 | i | 26.8
COc1ccc2c(C)cc(N3CCN(Cc4ccccc4)CC3)nc2c1 | 4.5 | 0.691 | -3.1% | -3.0 | -1.7 | 3.5 | -0.6 | i | -2.5
C[C@H](NC(=O)C[C@@H]1CC[C@H](NC(=O)C2CCOCC2)[C@@H](CO)O1)c1ccccc1 | 1.6 | . | . | 1.1 | 2.7 | 0.6 | . | i | .
COc1ccc(-c2csc(NC(=O)CSc3nnnn3C)n2)cc1OC | -11.4 | 0.688 | -5.3% | 3.2 | 7.6 | 0.7 | 1.1 | i | 98.4*
O=C(O)CCC(=O)N1CCc2cc(S(=O)(=O)NCc3ccc(Cl)cc3)ccc21 | 0.0 | 0.629 | 9.5% | 3.3 | 2.9 | -1.3 | -1.4 | i | -3.1
O=C1CCCc2nc(N3CCN(Cc4ccccc4)CC3)ncc21 | . | 0.668 | ? | . | . | . | -2.1 | . | -8.5
Cc1cc2cc3c(cc2nc1SCC(=O)N1CCCC1)OCCO3 | 3.1 | 0.631 | . | -2.7 | -8.6 | -1.7 | 1.3 | i | .
COc1ccccc1NC(=O)CSc1nnc(NC(=O)C2CCC2)s1 | -0.2 | 0.662 | . | 6.9 | 10.8 | -1.6 | -1.9 | i | -1.6
COc1ccc(CN2C(=O)/C(=C/c3ccncc3)SC2=S)cc1 | . | 0.679 | 6.1% | . | . | . | 4.6 | . | -2.3
C[C@@H]1CN([C@@H](C)CO)C(=O)c2cc(NC(=O)c3ccncc3)ccc2O[C@H]1CN(C)C(=O)Nc1ccccc1 | -3.0 | . | . | 3.3 | 1.6 | -2.7 | . | i | .
COc1cccc(OCCn2ccnc2)c1 | . | 0.699 | 14.1% | 7.2 | 0.0 | -1.5 | 1.9 | . | -11.7
Cc1ccc(S(=O)(=O)N2CCN(CC(=O)N/N=C/c3ccco3)CC2)cc1 | . | . | 6.2% | . | . | . | 1.2 | . | -8.0
O=C(Cc1ccccn1)N[C@H]1CC[C@@H](CCNS(=O)(=O)c2cccc(F)c2)O[C@@H]1CO | 14.1 | . | . | 2.1 | -0.1 | 0.6 | . | i | .
CN(C)S(=O)(=O)c1ccc(Cl)c(NC(=O)COC(=O)c2cc(-c3ccccc3)nc3ccccc23)c1 | -24.8 | 0.695 | -17.4% | 7.1 | 5.0 | 5.2 | -0.8 | i | -3.8
CCCc1cc(-c2n[nH]c(=S)n2CC)cs1 | -4.2 | 0.655 | 6.1% | -4.7 | 0.9 | 2.8 | 3.7 | i | 73.7
COC(=O)c1cc(S(=O)(=O)N2CCN(c3ccccc3F)CC2)c[nH]1 | -0.3 | 0.661 | . | -4.9 | 1.2 | 3.1 | 1.2 | i | -3.6
O=C(NCc1ccccn1)c1ccc(OC2CCN(Cc3ccccc3)CC2)cc1 | -7.7 | 0.719 | . | 11.7 | 5.6 | 5.1 | -4.9 | i | -6.3
C[C@H]1CN([C@@H](C)CO)C(=O)c2cc(C3=CCCCC3)cnc2O[C@@H]1CN(C)Cc1ccncc1 | 2.8 | . | . | 1.3 | -2.1 | -0.6 | . | i | .
CC(C)CC#Cc1ccc2c(c1)O[C@@H](CN(C)Cc1cccnc1)[C@H](C)CN([C@H](C)CO)S2(=O)=O | 5.3 | . | . | -16.6 | -27.8 | 3.5 | . | i | .
CCOc1ccc(CCNC(=O)c2sc3nc4n(c(=O)c3c2C)CCC4)cc1 | -0.9 | 0.692 | -20.2% | -1.8 | 6.9 | 0.8 | 1.9 | i | -7.3
Cc1noc(C)c1COc1ccc(C(=O)OCC(=O)Nc2ccc(S(N)(=O)=O)cc2)cc1 | -4.7 | 0.67 | -6.2% | -13.7 | -13.8 | 0.0 | -2.8 | i | -0.4
O=C(O)CNC(=O)/C=C/c1c(Cl)cccc1Cl | -1.0 | 0.66 | -0.3% | 5.2 | 7.1 | -1.7 | -4.6 | i | 0.9
CCC(Cc1ccccc1)NC(=O)CN1C(=O)CSc2ncccc21 (stereo not drawn) | 2.1 | 0.741 | -6.3% | 1.7 | 6.1 | -3.9 | 1.6 | i | -18.2
Cc1ccc(C2(c3ccccc3)NC(=O)N(CC(=O)N3CC(=O)Nc4ccccc43)C2=O)cc1C (stereo not drawn) | 2.2 | 0.649 | -5.5% | 3.4 | -20.6 | 5.4 | -3.4 | i | .
CSc1ccccc1OCc1cc(C(=O)N2CCN(C3CCCC3)C(=O)C2)no1 | 0.5 | 0.676 | . | -19.4 | -27.9 | -2.5 | -2.6 | i | -0.9
COc1cc(/C=C/C(=O)O)cc(S(=O)(=O)NCCCO)c1OC | -1.5 | 0.74 | 1.6% | . | . | . | -3.3 | . | -5.2
O=C(O)CC1(CC(=O)Nc2ccc(Cl)cc2C(=O)c2ccccc2)CCCC1 | -4.0 | 0.661 | 14.7% | -2.1 | -1.0 | 2.4 | -5.7 | i | 4.3
CN1c2ccsc2/C(=N/NC(=O)c2c(F)cccc2F)CS1(=O)=O | . | . | >100µM* | . | . | . | 2.8 | . | 37.0
CCN(CC)CCn1c(SCC(=O)NCc2ccco2)nc2c(sc3ccccc32)c1=O | . | 0.686 | -3.5% | . | . | . | -3.5 | . | -4.2
CCNC(=O)C1(C)CCCN(C(=O)COCc2ccccc2)C1 (stereo not drawn) | -1.5 | . | . | 8.4 | -0.8 | -2.0 | 1.7 | i | .
Following part.
SMILES | AF4-AF9 inh | E coli growth | Vif A3G | rRNA inh HTS | rRNA inh HTS OD600 | rRNA inh HTS RFP | HNF4A DNA FP | FGF22 binding | ALR inh
CC(CNC(=O)CC[C@H]1O[C@@H](n2cnc3c(NC(=O)c4ccccc4)ncnc32)[C@H](O)[C@@H]1O)c1ccccc1 (stereo partly drawn) | -1.2 | . | . | 9.2 | 4.0 | -4.8 | 3.3 | i | .
CCSc1nnc(Cc2cc(=O)[nH]c(=O)[nH]2)n1-c1cccc(C)c1 | -1.5 | 0.723 | . | 1.3 | 3.9 | 2.3 | 0.6 | i | -12.5
O=C(Cc1c[nH]c2ccccc12)N1CCN(c2ccccc2)CC1 | 1.2 | 0.688 | 2.1% | -16.8 | -18.4 | 28.3 | 1.2 | i | 17.7
COc1ccc(NC(=O)Nc2ccc3c(c2)C(=O)N([C@H](C)CO)C[C@@H](C)[C@@H](CN(C)Cc2ccc(Cl)c(Cl)c2)O3)cc1 | 1.4 | . | . | -3.7 | -9.9 | 4.5 | . | i | .
COc1ccc(N2CC(C(=O)NCCCN3CCOCC3)CC2=O)cc1 (stereo not drawn) | . | 0.723 | ? | . | . | . | -3.4 | . | -11.4
CS(=O)(=O)N1[C@H](C#N)[C@H](c2ccc(C#CC3CC3)cc2)[C@H]1CO | 0.3 | . | . | 0.3 | -0.1 | 0.5 | . | i | .
